GLD-1 TGE inh = GLD-1-TGE RNA interaction inhibition (C. elegans). purified GLD-1 + fluorescein TGE RNA, fluorescence polarization. Q17339. inhibition, % at 5.96 µM. hit rate 0.44% among 320,000;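 active means percent inhibition above a per-plate cutoff, the plate mean of test compounds plus 3 SD, cut at about 30% in these data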;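 further: 0% = DMSO wells with GLD-1 and probe and 100% = wells lacking GLD-1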
AGP1 TOR yeast = modulators of TOR pathway AGP1-GFP in S. cerevisiae; GFP response vs DMSO, % at 10 µM; hit rate 0.02% among 320,000; S. cerevisiae AGP1-GFP multiplex flow cytometry, 3 h; GFP as percent of DMSO wells;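 active means GFP response relative to DMSO above a set limit, near screen average plus 3 SD, cut at about 150% in these data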;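 further: median GFP channel fluorescence of the gated AGP1 strain per well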
CIT2-GFP yeast = yeast TOR pathway CIT2-GFP modulation; S. cerevisiae CIT2-GFP strain, flow cytometry, 3 h; 100 means same as DMSO wells; hit rate 0.065% among 320,000; GFP response vs DMSO, % at 10 µM;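 active means GFP response relative to DMSO above a set limit, near the screen mean plus 3 SD, cut at about 150% in these data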;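 further: ratio of well median GFP fluorescence to mean of DMSO wells on the plate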
GRK2 aptamer HTS = inhibitors of human GRK2 displacing RNA aptamer; P25098; bead flow cytometry, FAM-aptamer displacement from GRK2; inhibition of aptamer binding, % at 10 µM; hit rate 0.59% among 330,000; AID 488847;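 active means inhibition of aptamer binding above 40%, roughly 3 SD of noise, on plates passing a quality check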;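 further: median bead fluorescence of bound FAM aptamer so fluorescent compounds give negative values; no value below 0 was filed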
MEX-5 binding = C. elegans MEX-5 TCR-2 RNA binding activity; Q9XUB2; MEX-5/FITC-TCR2 RNA binding, fluorescence polarization; stronger effect = lower value; activity score (negative = inhibition of binding), % at 10 µM; hit rate 0.38% among 300,000; AID 1832;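 active means inhibition past about -25% in most replicates, and total fluorescence under double the plate's negative control median, limit read from the data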;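 further: 0% = DMSO and -100% = 5 µM competing unlabeled TCR2 RNA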
VLA-4 inh = inhibition in a human VLA-4 binding assay; P13612; VLA-4 expressing cells, ligand binding flow cytometry; inhibition, % (about 7 µM as worked out from the volumes in the protocol); hit rate 0.2% among 330,000; in the data active means inhibition above about 50%
An asterisk follows results filed as active; nt = not tested or not shown; [ ] = another dose, or the depositor's remark.

No.	SMILES	GLD-1 TGE inh	AGP1 TOR yeast	CIT2-GFP yeast	GRK2 aptamer HTS	MEX-5 binding	VLA-4 inh
1	C=CCN1C(=O)/C(=C/c2cccs2)C(=O)NC1=S	0.5	71.8	49.1	1.0	-5.9	33.6
2	CC(C)(C)c1ccccc1O	-4.1	97.5	89.7	0.0	nt	3.9
3	C[N+](C)(C)CC(=O)O	-3.7	87.6	92.1	0.0	nt	-18.2
4	Nc1ccc2c(c1)Cc1ccccc1-2	-14.2	99.2	95.4	0.0	-0.6	21.4
5	Nc1c(Cl)cc([N+](=O)[O-])cc1Cl	2.8	107.9	118.3	0.0	-1.6	-6.0
6	C[C@]12CCC(=O)C(O)=C1CC[C@@H]1[C@@H]2CC[C@]2(C)C(=O)CC[C@@H]12	3.6	80.5[may fluoresce red]	77.5[may fluoresce red]	0.0	1.9	33.9
7	C[C@]12CC[C@H](O)C[C@H]1CC[C@@H]1[C@@H]2CC[C@]2(C)C(=O)CC[C@@H]12	5.5	105.7	83.0	0.0	nt	-2.3
8	CC(C)[N+]12CCC(CC1)C(C(O)(c1ccccc1)c1ccccc1)C2 (configuration not stated)	2.2	101.4	100.1	0.0	-1.1	9.0
9	CCC1(c2ccc(N)cc2)CCC(=O)NC1=O (configuration not stated)	4.6	96.2	95.5	2.0	1.0	-4.7
10	CCCOC(=O)c1ccccc1C(=O)OCCC	3.2	96.1	88.0	1.0	nt	9.0
11	CN1CCN(C(=O)COc2ccc(-c3nc4ccccc4s3)cc2)CC1	-3.1	99.3	97.7	1.0	-1.2	3.4

Taken from above:
GRK2 aptamer HTS with compound 3 reads 0.0
GLD-1 TGE inh with compound 10 reads 3.2

In the list so far, two contain sulfur:
No.	SMILES	GLD-1 TGE inh	AGP1 TOR yeast	CIT2-GFP yeast	GRK2 aptamer HTS	MEX-5 binding	VLA-4 inh
1	C=CCN1C(=O)/C(=C/c2cccs2)C(=O)NC1=S	0.5	71.8	49.1	1.0	-5.9	33.6
11	CN1CCN(C(=O)COc2ccc(-c3nc4ccccc4s3)cc2)CC1	-3.1	99.3	97.7	1.0	-1.2	3.4

Just AGP1 TOR yeast, CIT2-GFP yeast and VLA-4 inh (3 entries from above):
#	Structure	AGP1 TOR yeast	CIT2-GFP yeast	VLA-4 inh
3	C[N+](C)(C)CC(=O)O	87.6	92.1	-18.2
1	C=CCN1C(=O)/C(=C/c2cccs2)C(=O)NC1=S	71.8	49.1	33.6
6	C[C@]12CCC(=O)C(O)=C1CC[C@@H]1[C@@H]2CC[C@]2(C)C(=O)CC[C@@H]12	80.5[may fluoresce red]	77.5[may fluoresce red]	33.9

Compound activity from PubChem.

A portion of the library. The share of hits here may be higher or lower than overall.
